RE007 growth inh: qHTS Assay for Inhibitors of the HIV-1 protein Vpr | S. pombe RE007 Vpr strain, BacTiter-Glo ATP luminescence, 24 h; control for the full effect not named in the record | Potency, µM (highest dose often 92.2 µM), inactives show at the top dose activity change, negative = less growth | actives 0.21% (n = 360,000) | AID 651644, 2012; active = well fitted falling curve with a large enough effect; inconclusive = small, poorly fitted or top-dose-only effect; inactive = no such curve, though single readings can be large or run the other way;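 further: on the % scale 0 is the no-effect control and ±100 the full control effect; nearly all actives have a fitted effect of over 50% in size; the assay follows cell death caused by Vpr and the record does not say whether a fall means rescue or toxicity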
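Fission yeast strain RE007, carrying one chromosomally integrated HIV-1 vpr copy, was seeded at OD 0.01 in PMG+AL medium with 23 nL pinned compound. After 24 h at 30 °C and 99% humidity, viability was read by BacTiter-Glo luminescence.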
SARS PLP yeast: qHTS of Yeast-based Assay for SARS-CoV PLP; S. cerevisiae expressing SARS-CoV PLpro, growth rescue; control for the full effect not named in the record; Potency, µM (series often up to 32.9 µM), inactives show top-dose activity, positive = growth rescue; actives 0.19% (n = 330,000); AID 485353, 2010; active means well fitted rising curve with a large enough effect; inconclusive means small, poorly fitted or top-dose-only effect; inactive means no such curve, though single readings can be large or run the other way; further: 0% is about no effect; nearly all actives have a fitted effect of over 55% in size; growth read by luminescence after 48 h
StopGo reporter: High Throughput Screening for Foot and Mouth Disease Virus Antivirals; human cells with a luciferase reporter of 2A StopGo recoding; control for the full effect not named in the record; Potency, µM (top dose mostly 57.9 µM), for inactives: top-dose signal change, negative = less light; AID 1159524, 2015; actives 1.2% (n = 410,000); active = well fitted falling curve with a large enough effect; inconclusive = small, poorly fitted or top-dose-only effect; inactive = no such curve, though single readings can be large or run the other way; tested in HEK293T cells; further: on the % scale 0 is the no-effect control and ±100 the full control effect; nearly all actives have a fitted effect of over 45% in size; luciferase light after 4 h
* hit, by the source's call; ? = inconclusive; [ ] = another dose, or the depositor's remark. Potency means the concentration at half of the fitted maximal effect. Only part of the results is shown. The share of hits here may be higher or lower than overall.

SMILES	RE007 growth inh	SARS PLP yeast	StopGo reporter
CCc1ccc(O)c(CNCCNCc2cc(CC)ccc2O)c1	-3%	4%	?
CC(C)NC(=O)COc1ccc2c(c1)C(=O)CC(C)(C)O2	6%	1%	-4%
O=C(COC(=O)[C@@H]1CCCN1C(=O)c1cccs1)Nc1cccc(Cl)c1	-9%	-8%	-14%
COc1cc(-c2nc(C)c(C(C)=O)n2O)ccc1OCC(=O)Nc1ccc(Cl)cc1	8%	-18%	-6%
O=C(OCC(=O)N1CCCCC1)c1cc(=O)[nH]c2ccccc12	2%	5%	40%[activator]
CCC(C)CCN1C(N(C)C)=NC[C@@H]1CC(C)C (stereo partly drawn)	-13%	0%	-16%
COC(=O)CC1C(=O)NCCN1C(=O)CSc1nnnn1-c1ccc(Cl)cc1 (stereo not drawn)	-6%	-1%	-7%
CCN1CCN(c2ccc(Cl)cc2NC(=O)c2ccco2)CC1	4%	-5%	-3%
CN(Cc1ccc(C(F)(F)F)cc1)C(=O)C1CC(=O)N(Cc2ccco2)C1 (stereo not drawn)	-13%	5%	-14%
CCN(CC(=O)NCc1cccs1)S(=O)(=O)c1c(F)cccc1F	5%	-4%	8%
CC(C)[C@H](NC(=O)OCc1ccccc1)C(=O)OCC(=O)N1CCN(c2ccc(F)cc2)CC1	-3%	-3%	?
Cc1ccc(/C=C/C(=O)OCc2nc(N)nc(Nc3ccccc3C)n2)o1	8%	0%	-25%
CCCCNC(=O)c1ccc(CNS(=O)(=O)c2ccc(Br)cc2)cc1	-11%	-1%	2%
CCOc1ccc(OCCC(=O)N(CC)CC(=O)NCc2cccs2)cc1	-15%	2%	6%
C=CCNC(=O)C1CCC(C(=O)NCC=C)CC1 (stereo not drawn)	-12%	0%	-5%
COc1ccccc1CCNC(=O)c1cccc(S(=O)(=O)N2CCc3ccccc3C2)c1	1%	9%	2%
C=CCNc1nc(C(=O)OCC(=O)N(Cc2ccccc2)C(C)C)cs1	10%	1%	-16%
COc1ccc(SCCN2CC[C@@H](NC(=O)OCc3ccccc3)CCC2=O)cc1	-19%	-6%	-25%
O=C1N/C(=N\N=C\c2cccs2)SC1Cc1ccc(Cl)c(Cl)c1 (stereo not drawn)	1%	1%	5%
COc1ccc(C(=O)Nc2ccc(NC(C)=O)cc2)cc1S(=O)(=O)N(C)Cc1ccccc1	15%	3%	-25%
COc1ccc(CN(C)CC(=O)NC(=O)Nc2ccccc2F)cc1	7%	-1%	-2%
COc1cccc(-c2ncc3ccccc3c2COC(=O)c2cccc(Br)c2)c1	-3%	5%	-21%
COc1cc(C2CC(=O)Oc3cc(C)c(Cl)c(C)c32)cc(OC)c1OC (stereo not drawn)	4%	-9%	-20%
Cc1ccc(C)c(NC(=O)COC(=O)c2nc(Cl)ccc2Cl)c1	-6%	-8%	3%
CC(C)C(NC(=O)c1ccc(F)cc1)C(=O)N1CCC1 (stereo not drawn)	-2%	4%	-3%
SMILES	RE007 growth inh	SARS PLP yeast	StopGo reporter
COc1cc(CCCN2C(=O)C(=O)NC[C@@H]2CC2CCCCC2)cc(OC)c1OC	-1%	-8%	1%
CC(C)C[C@@]12C(=O)N(c3cccc(Cl)c3)C(=O)N1[C@H](c1ccc(Cl)cc1)[C@@H]1C(=O)N(C3CCCCC3)C(=O)[C@@H]12	1%	-8%	-1%
COC(=O)C[C@H](NC(=O)Cn1cnc2c(NCc3ccccc3)ncnc21)C(=O)OC	2%	-11%	-24%
O=C(NCCN1CCCCC1)c1cccc2c1C(=O)c1ccc(N3CCCC3)cc1S2(=O)=O	-12%	-8%	13%
O=C(N/N=C\c1ccc(Oc2ccccc2)cc1)c1csnn1	0%	2%	43%[activator]
CCC(C(=O)OCc1csc(CC(=O)Nc2ccccc2C)n1)c1ccccc1 (stereo not drawn)	-3%	-1%	-22%
COc1cccc(C(=O)OC(C)C(=O)Nc2ccc3c(c2)OCO3)c1 (stereo not drawn)	-13%	-1%	-15%
CSC1=NC2(CCCCC2)CC12C=CC(=O)C=C2	-3%	-3%	5%
CCOC(=O)[C@H]1[C@H]2COc3ccc(Cl)cc3[C@@H]2N2C(=O)CN(Cc3ccc(OC)cc3)C(=O)[C@@]12C	6%	?	-17%
COc1ccc(C2(C)NC(=O)N(CC(=O)Nc3ccc4c(c3)CCC4)C2=O)cc1OC (stereo not drawn)	-4%	-1%	-25%
CCc1ccc([C@@H]2CC=C(C(=O)O)[C@H](c3ccc(Br)cc3)N2S(=O)(=O)c2ccc(C)cc2)cc1	5%	-10%	-9%
O=C(CNC(=O)c1ccc(Br)o1)OCc1ccc(Br)cc1	-1%	-1%	-21%
Cc1ccc(CCN2C(Nc3ccccc3)=NC[C@@H]2C)cc1	-14%	-1%	-6%
CCN(CC)c1cccc(OCC(=O)N2c3ccccc3CC2C)c1 (stereo not drawn)	-26%	7%[6.58 µM]	-5%
CCOc1ccc(NC(=O)C2CC(=O)N(CCc3ccc(OC)c(OC)c3)C2)cc1OCC (stereo not drawn)	-2%	0%	-1%
CCCCN1C(=O)C(=O)N(CC(=O)Nc2cc(Cl)ccc2OC)C1=O	-6%	-3%	-18%
CCOC(=O)c1nc(NCCc2ccccc2)sc1C	-14%	-4%	31%[activator]
O=C(COC(=O)Cc1ccccc1F)NC(=O)NC1CCCC1	-5%	0%	7%
Cc1cc(Cl)ccc1C1=CC(=O)C[C@H](c2ccc(F)cc2)C1	2%	1%	-24%
Cc1ccc(NC(=O)COC(=O)C2COc3ccccc3O2)cc1 (stereo not drawn)	-11%	-1%	-6%
Cc1cccc(C)c1NC(=O)CNC(=O)CCNC(=O)c1ccco1	-8%	-1%	-16%
Cc1ccccc1-c1nnc(SCC(=O)NC2CCS(=O)(=O)C2)n1C (stereo not drawn)	23%	-5%	-5%
Cc1ccc(S(=O)(=O)n2cccc2CO)cc1	6%	1%	-12%
COc1ccc(C(=O)N[C@H](C(=O)NC2CCCCC2)C(C)C)cc1	-17%	4%	-1%
CCN(C[C@H]1N[C@@](Cc2ccccc2)(C(=O)OC)[C@H]2C(=O)N(C)C(=O)[C@@H]12)C(=O)Nc1ccccc1	8%	9%	-17%
SMILES	RE007 growth inh	SARS PLP yeast	StopGo reporter
CC(C)(C)c1ccc(C(=O)OCC(=O)N2CCC(c3ccccc3)=N2)cc1	0%	5%	-24%
COC(=O)c1c(NC(=O)CN2C(=O)NC3(CCC(C)CC3)C2=O)sc2c1CCC2 (stereo not drawn)	8%	-2%	-31%
COc1ccc(-c2oc(=O)c3cc(OC)c(OC)cc3c2-c2ccc3c(c2)OCO3)cc1	-18%	1%	3%
CCOC(=O)c1ccc(-n2c(CN(CC)CC)nc3ccc([N+](=O)[O-])cc3c2=O)cc1	1%	-2%	3%
COc1ccc(S(=O)(=O)NCCC(=O)N2CCCN(C)CC2)cc1	1%	7%	-6%
Fc1ccc2cc(CCO[C@H]3CCCCO3)ncc2c1	-1%	7%	-10%
CC1CC(C)(C)Nc2ccc(N=O)cc21 (stereo not drawn)	-27%	-5%	?
COc1ccc(CCC(=O)Nc2ccc(OC)c(S(=O)(=O)N3CCCCC3)c2)cc1OC	2%	-5%	?
Nc1nc(SCCO)[nH]c(=O)c1NC(=O)c1ccco1	-19%	-5%	-9%
S=c1[nH]nc(-c2cccs2)n1/N=C/c1c(Cl)cccc1Cl	-16%	-1%	-1%
CN(C)CCN(C(=O)c1ccc(S(=O)(=O)N(C)C)cc1)c1nc2cc3c(cc2s1)OCCO3	?	1%	0%
COc1cccc(/C=C/C(=O)OCC(=O)NCC2CCCCC2)c1OC	15%	2%	-7%
CCCCNc1c(-c2cccc(-c3cc(C(C)=O)cs3)c2)nc2ccc(C)cn12	-26%	2%	?
COc1ccc(S(=O)(=O)N2CCCCC2)cc1NC(=O)CSc1ncccn1	15%	5%	9%
COc1ccc(S(=O)(=O)N2CCN(C(=O)CCSc3ccccc3)CC2)cc1	16%	5%	?
CC(OC(=O)CN1C(=O)NC2(CCCC2)C1=O)c1ccc(F)cc1 (stereo not drawn)	-1%	18%	?
O=C(CCCn1cnc([N+](=O)[O-])n1)Nc1ccc(F)c(Cl)c1	9%	1%	-16%
O=C(CSc1cccc[n+]1[O-])NC1CCCCC1	9%	-8%	-13%
C=CCC[C@@H](Cc1ccc(F)cc1)C(=O)OCCNC(=O)[C@@H](CC=C)CC(=O)N[C@H](CO)Cc1ccccc1	18%	0%	?
O=S(=O)(c1ccc(Cl)s1)N1CCNCC1	-2%	-1%	-17%
CCN(CC(=O)Nc1ccc2c(c1)OCCO2)C(=O)/C=C/c1ccccc1	9%	-4%	39%[activator]
O=C1CSC(c2ccc(Cl)c(Cl)c2)N1c1nccs1 (stereo not drawn)	13%	-2%	-21%
O=C(COc1ccc(Cl)cc1Cl)OCC(=O)c1ccc[nH]1	-12%	1%	-16%
O=C(COC(=O)C1=COCCO1)NCc1ccc(Cl)cc1	-7%	0%	-4%
C[C@H](CO)N1C[C@H](C)[C@@H](CN(C)C(=O)Nc2ccc3c(c2)OCO3)Oc2ccc(NC(=O)Cc3ccccc3)cc2C1=O	-7%	-45%	4%

Part of the list above in order of heavy-atom count, lowest first:
SMILES	RE007 growth inh	SARS PLP yeast	StopGo reporter
O=C(CSc1cccc[n+]1[O-])NC1CCCCC1	9%	-8%	-13%
Nc1nc(SCCO)[nH]c(=O)c1NC(=O)c1ccco1	-19%	-5%	-9%
COc1cccc(/C=C/C(=O)OCC(=O)NCC2CCCCC2)c1OC	15%	2%	-7%
COc1ccc(S(=O)(=O)N2CCCCC2)cc1NC(=O)CSc1ncccn1	15%	5%	9%
COC(=O)c1c(NC(=O)CN2C(=O)NC3(CCC(C)CC3)C2=O)sc2c1CCC2 (stereo not drawn)	8%	-2%	-31%
COc1ccc(-c2oc(=O)c3cc(OC)c(OC)cc3c2-c2ccc3c(c2)OCO3)cc1	-18%	1%	3%
CN(C)CCN(C(=O)c1ccc(S(=O)(=O)N(C)C)cc1)c1nc2cc3c(cc2s1)OCCO3	?	1%	0%

Reprinted at random: 3 compounds from above
SMILES	RE007 growth inh	SARS PLP yeast	StopGo reporter
Fc1ccc2cc(CCO[C@H]3CCCCO3)ncc2c1	-1%	7%	-10%
COc1cccc(-c2ncc3ccccc3c2COC(=O)c2cccc(Br)c2)c1	-3%	5%	-21%
CCOC(=O)c1nc(NCCc2ccccc2)sc1C	-14%	-4%	31%[activator]

Continuation:
SMILES	RE007 growth inh	SARS PLP yeast	StopGo reporter
O=C(CN1C(=O)C2CC=CCC2C1=O)NCC(=O)Nc1ccc(F)c(F)c1 (stereo not drawn)	1%	2%	-8%
CCc1noc(C)c1C(=O)Nc1nc(-c2ccccc2)c(C(C)=O)s1	7%	-9%	-2%
COC(=O)C1=C(c2ccccc2OCc2ccccc2)C[C@@H]2CC[C@H]1N2C(=O)NCc1ccc(Br)cc1	10%	1%	-21%
Cc1cc(Cl)ccc1NC(=O)CN1C(=O)C(=O)N(C2CCCC2)C1=O	12%	-6%	4%
c1ccc(-c2cc3cc4c(cc3cn2)OCO4)cc1	?	1%	-18%
O=c1ccc(S(=O)(=O)N2CCCC2)c[nH]1	1%	4%	-7%
COCc1c(C(=O)OCC(=O)Nc2ccc(OC(F)F)cc2)oc2ccccc12	-10%	1%	-4%
C[C@H](NC(=O)c1[nH]cnc1C(=O)Nc1cccc(Cl)c1)c1ccccc1	9%	3%	-2%
Cn1cccc1C(=O)Nc1ccc(N2CCOCC2)cc1	-20%	-2%	2%
COC(=O)c1ccc(OS(=O)(=O)N(C)C)cc1	-6%	-7%	54%[activator]
COc1cc(/C=C(\C#N)C(=O)NCCc2ccccc2)cc(OC)c1O	1%	-5%	-11%
CCCCC(=O)OCC(=O)c1cc(C)n(-c2c(C)n(C)n(-c3ccccc3)c2=O)c1C	-6%	0%	1%
CCOc1ccc(S(=O)(=O)N2CCC(C(=O)OCc3cccc(OC)c3OC)CC2)cc1	8%	-3%	-21%
Cc1ccc(S(=O)(=O)N(C)C[C@@H]2Oc3ccc(NC(=O)Nc4cccc5ccccc45)cc3C(=O)N([C@H](C)CO)C[C@H]2C)cc1	0%	5µM*	-13%
COc1ccc2c(c1)OC[C@H]1[C@H]2N2C(=O)c3ccc(C)cc3NC(=O)[C@@]2(C)[C@H]1c1ccccc1	0%	3%	?
CC1CCCCN1C(=O)COC(=O)c1ccc(N2CCCC2=O)cc1 (stereo not drawn)	-19%	0%	17%
CCN(C(=O)COC(=O)Cc1cccc2ccccc12)C1CCS(=O)(=O)C1 (stereo not drawn)	-7%	-7%	-8%
O=C(COC(=O)/C=C/c1cccc(Cl)c1)NCc1cccs1	2%	-6%	-12%
COc1ccccc1N1CCN(C(=O)C2CCN(S(=O)(=O)c3ccccc3F)CC2)CC1	-2%	4%	-29%
CC(=O)c1ccc(NC(=O)CN2CCN(S(=O)(=O)c3ccc4ccccc4c3)CC2)cc1	-3%	-3%	-10%
COc1cc(C#Cc2c(-c3cncn3C)n(C)c3ccc(-c4ccc5cc[nH]c5c4)cc23)cc(OC)c1	-10%	-4%	22%

Screens (PubChem)
